LASV entry inh = blocks Lassa virus binding or cell entry. Lassa virus pseudotyped entry inhibition, cell-based qHTS; control for the full effect not named in the record; many of its hits are not listed in these tables. Potency, µM (highest dose often 49.2 µM), for inactives: top-dose activity change, negative = inhibition, actives largely listed as inhibitors. actives 4.1% (n = 18,000); active = well fitted inhibition curve with a large enough effect; inconclusive = small, poorly fitted or top-dose-only effect; inactive = no such curve, though single readings can be large or run the other way; tested in HEK293 cells; note: luciferase read-out
Marburg entry = inhibitors of Marburg virus binding or entry into cells; actives 6.5% (n = 18,000); Potency, µM (doses to about 49.2 µM), without a hit: at the highest dose activity change, negative = inhibition, most hits filed as inhibitors; AID 720532; Marburg virus pseudotype entry/binding inhibition, cell-based; control for the full effect not named in the record; many of its hits are not listed in these tables; active means well fitted inhibition curve with a large enough effect; inconclusive means small, poorly fitted or top-dose-only effect; inactive means no such curve, though single readings can be large or run the other way; tested in HEK293 cells; note: luciferase read-out
Numbers without * were called inactive; ? = inconclusive; · = no result given; & = joins results of further samples; ! = not active in a repeat; [ ] = remark or other dose. % is set by controls: 0 for no effect and ±100 for the full control effect; potency is the fitted concentration of half-maximal effect. This is a subset (hit frequency here may not be typical).

Each structure is followed by: Marburg entry, LASV entry inh
Nc1nc2ccc([N+](=O)[O-])cc2s1
    7.6%[107 µM], -10.9%[107 µM]
O=C(OCc1cn([C@@H]2CN(C(=O)c3cccs3)[C@@H](c3ccc(Cl)cc3)C[C@@H]2O)nn1)c1ccccc1
    -7.8%, 4.1%
COC(=O)C1(C(C)=O)CC2=CC[C@@H]3C(=O)N(c4ccccc4)C(=O)[C@@H]3[C@@H]2Cc2ccccc2[C@@H]1C[N+](=O)[O-] (stereo not given in full)
    1.9%, 4.7%
O=C(N[C@H]1CN2CCC1CC2)c1ccc(Cl)cc1
    ?, -10.4%
COc1cccc([C@H]2Oc3ccc(OC)cc3C(=NOCC[C@@H]3C=C[C@H](OC(C)=O)[C@@H](COC(C)=O)O3)[C@H]2O)c1
    -24.0%[8.59 µM], ·
O=C1NN(C(=O)Nc2ccc(Br)cc2)C(c2ccccc2)C1c1ccccc1 (stereo not given)
    -1.5%, ?
CCC(=O)CC
    -18.6%, -7.4%
COc1c(O)cc2oc(-c3ccc(O)cc3)cc(=O)c2c1O
    3.9%, ?
N[C@@H](Cn1cc(F)c(=O)[nH]c1=O)C(=O)O
    7.8%, -0.5%
CCOC(=O)CN1C(=O)[C@]2(O[C@H](C)CC3=CCCC32)c2c(Br)cccc21 (stereo not given in full)
    ?, -7.3%[8.59 µM]
NCCc1cnc(-c2cccc(C(F)(F)F)c2)[nH]1
    ?, ?
CCNc1nc(Cl)nc(NCC)n1
    -2.1%, -1.8%
C=C(C)[C@H]1CN[C@H](C(=O)O)[C@@H]1CC(=O)O
    0.7%, 0.0%
Cc1cnc(-n2ncc(C(=O)NCCc3cccnc3)c2C)nc1-c1cccs1
    -18.8%, 8.3%
Nc1nc(Cl)nc2c1ncn2[C@@H]1O[C@H](CO)[C@@H](O)[C@@H]1F
    2.51µM*, ?
CC(C)[C@H](N)C(=O)OCCOCn1cnc2c(=O)[nH]c(N)nc21
    -0.9%, 1.9%
Cc1nn(-c2ccccc2)c(C)c1CC(=O)NCC1Cc2cc(-c3cncnc3)ccc2O1 (stereo not given)
    -13.1%, -7.2%
CN1C(CC(=O)c2ccccc2)CCCC1CC(O)c1ccccc1 (stereo not given)
    ?, -25.4%
O=P1(O)OP(=O)(O)OP(=O)(O)O1.[Al]
    2.0%, -12.3%
N#C/C(=C\c1ccc(O)c(O)c1)C(=O)NCCCCc1ccccc1
    ?, ?
OC[C@H]1O[C@@](CO)(O[C@H]2O[C@H](CO)[C@@H](O)[C@H](O)[C@H]2O)[C@@H](O)[C@@H]1O
    3.3%, -8.8%
CC[C@H](NC(=O)[C@H](CCCN=C(N)N)NC(=O)[C@H](Cc1c[nH]c2ccccc12)NC(=O)[C@@H](N)CS)C(=O)N[C@@H](CCCN=C(N)N)C(=O)N[C@@H](Cc1ccc(O)cc1)C(N)=O
    14.8%, 5.3%
NC(N)=NCCCC(NC(=O)C(N)Cc1ccc(O)cc1)C(=O)O (stereo not given)
    -4.8%, 0.0%
Cc1cc(CNC(=O)c2cnn(-c3nccc(-c4cc(C)sc4C)n3)c2C2CC2)on1
    34.2%[activator], 16.0%
COC(=O)/C=C/C(C)=C/C=C/C(C)=C/C=C/C=C(C)/C=C/C=C(C)/C=C/C(=O)O
    13.1%, 0.1%
CC(C)CC1OC(=O)C2=CCCCC21 (stereo not given)
    17.2%, 6.8%
CCN1C(=NCC(C)C)N[C@@H](CCc2ccccc2)[C@H](C(=O)OC)[C@H]1C
    ?, -0.7%[8.59 µM]
Cc1c(N(C)C)c(=O)n(-c2ccccc2)n1C
    11.5%, 4.5%
CCN(Cc1ccncc1)Cc1ccc2c(c1)CN(C(=O)c1ccc(C)cc1)CCO2
    6.0%, -4.3%
Cc1nc2cc(NC(=O)[C@@H]3C[C@@H](Sc4ccccn4)CN3Cc3ccccc3)ccc2s1
    44.6%[activator], 23.6%
CCN(Cc1ccncc1)Cc1ccc2c(c1)CN(C(=O)c1ccc(C#CC(C)(C)O)o1)CCO2
    -5.1%, 2.5%
COc1c(O)c2c(=O)cc(OC)c3c4c(OC)cc(=O)c5c(O)c(OC)c6c(c(c1C[C@@](C)(O)[C@H]6C(C)=O)c23)c54
    ?, 35.5µM*
O=C(NCc1ccccn1)c1cnn(-c2ncc3c(n2)-c2ccccc2CC3)c1C1CC1
    -2.8%, -6.6%
CN(C)C(=O)Nc1ccc(Oc2ccc(Cl)cc2)cc1
    8.9%, -7.4%
FC(F)(F)c1ccc(-c2nc(-c3ccccc3)oc2NCc2ccccc2)cc1
    -6.9%[8.59 µM], ?
COc1ccc(C=CC2=C[C@]3(C)C[C@]2(C)[C@H](c2ccc(OC)cc2)CC3=O)cc1
    3.8%[8.59 µM], 5.2%[8.59 µM]
COC(=O)[C@H](Cc1ccccc1)NC(=O)O[C@@H]1C(=O)c2cc(OC)ccc2O[C@H]1c1cccc(OC)c1
    42.6%[activator], 21.0%
COC(=O)Nc1ccc(Cl)c(Cl)c1
    3.4%, -5.1%
COC(C)=O
    8.0%, -20.2%
O=C(O)CNC(=O)[C@@H](CS)Cc1ccccc1
    5.9%[17.8 µM], 12.2%[17.8 µM]
Cc1ccc(CN2CCC(=O)N(Cc3ccccn3)CC2)c(C)c1
    -4.1%, -10.1%
CCCCCOC(=O)Nc1nc(=O)n([C@@H]2O[C@H](C)[C@@H](O)[C@H]2O)cc1F
    16.8%, 5.7%
O=c1[nH]c(=O)n([C@@H]2O[C@H](CO)[C@@H](O)[C@H]2O)cc1Br
    5.1%, -3.1%
CCC1CN(CCNC(=O)c2ccc3c(c2)OCO3)Cc2cc(OC)ccc2O1 (stereo not given)
    0.3%, -11.4%
COC(=O)CC=C[C@@H](C)[C@@H](Cc1ccccc1Br)OC
    -3.5%[8.59 µM], ·
Cc1cc(C)n(-c2cccc(C(=O)NCC3Cc4cc(Cl)cc(-c5cnccn5)c4O3)c2)n1 (stereo not given)
    -2.4%, ?
CN1C2CCC1CC(C(=O)OC(CO)c1ccccc1)C2 (stereo not given)
    6.6%, 2.9%
CC(C)C[C@@H](CC(=O)N[C@H](CC(=O)N[C@@H]1CCCC[C@H]1C(=O)N[C@H](CC(=O)N[C@@H](CCC(=O)O)CC(=O)O)Cc1c[nH]c2ccccc12)C(C)C)NC(=O)[C@@H]1CNCC[C@H]1N
    -9.8%, 8.4%
O=S(=O)(O)c1cc(O)c2c(N=Nc3ccc(Nc4ccccc4)c4c(S(=O)(=O)O)cccc34)cc(S(=O)(=O)O)cc2c1
    ?, ?
CCCN1CCc2cccc3c2C1Cc1ccc(O)c(O)c1-3 (stereo not given)
    2.9%, ?

Continued:
Each structure is followed by: Marburg entry, LASV entry inh
CC1(OC(=O)CCc2ccccc2)C(=O)C=C2C=C(c3ccsc3)OC=C2C1=O (stereo not given)
    -17.5%, 1.4%
CCCCN1CCC(CCC(=O)c2cc(Cl)c(N)cc2OC)CC1
    11.2µM*, 28.2µM*!
CN(c1ccc(NC(=O)Nc2ccc(OC(F)(F)F)cc2)cc1)c1ccnc(Nc2cccc(S(N)(=O)=O)c2)n1
    ?, ·
Nc1nccc(-c2c(-c3ccc(F)cc3)nn3cc(C(F)(F)F)ccc23)n1
    30.0%[activator], 28.4%
O=NN1CCCC1c1cccnc1 (stereo not given)
    12.4%, 2.8%
CCN1C(=NCc2cccc(C(F)(F)F)c2)NC(c2cccc(C(F)(F)F)c2)C(C(=O)OC)=C1C (stereo not given)
    -17.4%[8.59 µM], -32.4%[8.59 µM]
Cc1cc(-c2ccnc(-n3ncc(C(=O)NCC4CCCN(C)C4)c3C3CC3)n2)c(C)s1 (stereo not given)
    ?, 4.7%
CO[C@@H](C)[C@](O)(C(=O)OCC1=CCN2CC[C@@H](O)[C@H]12)C(C)C
    -26.5%[17.8 µM], 3.9%[17.8 µM]
CC1CC[C@]2(NC1)OC1CC3C4CC=C5CC(O)CC[C@@]5(C)C4CC[C@]3(C)C1C2C (stereo not given in full)
    8.7%, 4.4%
COc1cc(O)c2c(c1)oc(=O)c1c3cc(O)c(O)cc3oc21
    11.2µM*, ?

The list goes on (7 carried over from the part before).
Each structure is followed by: Marburg entry, LASV entry inh
Nc1nccc(-c2c(-c3ccc(F)cc3)nn3cc(C(F)(F)F)ccc23)n1
    30.0%[activator], 28.4%
O=NN1CCCC1c1cccnc1 (stereo not given)
    12.4%, 2.8%
CCN1C(=NCc2cccc(C(F)(F)F)c2)NC(c2cccc(C(F)(F)F)c2)C(C(=O)OC)=C1C (stereo not given)
    -17.4%[8.59 µM], -32.4%[8.59 µM]
Cc1cc(-c2ccnc(-n3ncc(C(=O)NCC4CCCN(C)C4)c3C3CC3)n2)c(C)s1 (stereo not given)
    ?, 4.7%
CO[C@@H](C)[C@](O)(C(=O)OCC1=CCN2CC[C@@H](O)[C@H]12)C(C)C
    -26.5%[17.8 µM], 3.9%[17.8 µM]
CC1CC[C@]2(NC1)OC1CC3C4CC=C5CC(O)CC[C@@]5(C)C4CC[C@]3(C)C1C2C (stereo not given in full)
    8.7%, 4.4%
COc1cc(O)c2c(c1)oc(=O)c1c3cc(O)c(O)cc3oc21
    11.2µM*, ?
CC(N)(C(=O)O)c1ccc(C(=O)O)cc1 (stereo not given)
    3.2%, 8.2%
C[C@H]1CCCC(=O)CCC/C=C/c2c(O)cc(O)cc2C(=O)O1
    -29.9%, -15.7%
C[C@@H]1CN(Cc2ccc3c(c2)CN(Cc2cccn2-c2ccccn2)CCO3)C[C@H](C)O1
    -6.8%, -8.5%
CCOC(=O)C1Oc2ccccc2C(c2cccc3ccccc23)=C1C(=O)OC (stereo not given)
    -15.5%, 3.9%
Cc1c(C(=O)N(C)C2CCCCC2)sc2nc3ccc(N)cc3n12
    22.4µM*, ?
C[C@@H]1CN(Cc2ccc3c(c2)CN(Cc2cccc(O)c2)CCO3)C[C@H](C)O1
    7.6%, -11.7%
N#Cc1cccc(Nc2nccc(-c3cnn4ncccc34)n2)c1
    0.025µM*, ·
CC(=O)N1CCC[C@H]1C(=O)NCC1Cc2cc(-c3cnccn3)cc(Cl)c2O1 (stereo not given in full)
    5.9%, -7.7%
CN1C(CCl)Nc2cc(Cl)c(S(N)(=O)=O)cc2S1(=O)=O (stereo not given)
    6.6%, -15.2%
CC(=O)OC1CC2C(C)(C)C(O)CC(O)[C@@]2(C)C2CC[C@@]3(C)C(=CC(=O)OC3c3ccoc3)[C@]12C (stereo not given in full)
    -26.5%, 0.2%
COc1ccc(CN2CCC3(CC2)c2ccccc2[C@@H](NC(=O)c2ccccc2)[C@@H]3O)cc1O
    ?, 3.5%
O=S(=O)(N[C@H](CO)c1ccccc1)c1ccc(Br)cc1F
    20.4%, ·
CC[C@H](C)[C@H](NC(=O)[C@H](Cc1ccc(O)cc1)NC(=O)[C@@H](NC(=O)[C@H](CCCN=C(N)N)NC(=O)[C@@H](N)CC(=O)O)C(C)C)C(=O)N[C@@H](Cc1cnc[nH]1)C(=O)N1CCC[C@H]1C(=O)N[C@@H](Cc1ccccc1)C(=O)N[C@@H](Cc1cnc[nH]1)C(=O)N[C@@H](CC(C)C)C(=O)O
    12.8%, 5.1%
C#C[C@@]1(O)CC[C@@H]2[C@@H]3CCC4=CC(=O)CC[C@@]4(C)[C@H]3CC[C@]21C
    -5.5%[17.8 µM], -5.5%[17.8 µM]
COc1c(O[C@@H]2O[C@H](CO)[C@@H](O)[C@H](O)[C@H]2O)cc2c(c1OC)-c1ccc(SC)c(=O)cc1[C@@H](NC(C)=O)CC2
    -14.4%[17.8 µM], -3.3%[17.8 µM]
COc1ccc(-c2ccc(CN3C(CC(C)C)C(=O)N(Cc4cn(Cc5ccco5)nn4)CCS3(=O)=O)cc2)cc1 (stereo not given)
    ?, ?
Cc1occc1C(=O)Nc1cccc(-c2nc(CNC(=O)c3cccc(C#CC(C)(C)O)c3)c(C)o2)c1
    ?, ?
CCN1C(=O)NC(c2ccccc2)C(C(=O)OC)=C1C (stereo not given)
    7.3%[8.59 µM], 4.1%[8.59 µM]
CCCCN1CC(COc2ccccc2)Oc2cc(Br)ccc2S1(=O)=O (stereo not given)
    ?, -18.6%
CCn1ccnc1C[C@@H]1COc2ccccc2O1
    -0.6%, 19.4%
C/C=C(\C)C(=O)OC1C(OC(=O)C2(C)OC2C)c2cc3ccc(=O)oc3cc2OC1(C)C (stereo not given)
    ?, 4.8%
CSc1ccccc1C(=O)NCc1nc(-c2cccc(NC(=O)c3ccoc3C)c2)oc1C
    ?, ?
C[C@H]1C[C@@H](C)O[C@@]2(C1)C(=O)N(Cc1ccc(F)cc1)c1ccccc12
    28.5%[8.59 µM], 16.1%[8.59 µM]
O=C(C=Cc1ccccc1)Nc1cccc(C(=O)N2CCCC2)c1
    42.4%[activator], 37.7%[activator]
CC(=O)Oc1cc(OC(C)=O)c2c(=O)cc(-c3ccc(OC(C)=O)c(OC(C)=O)c3)oc2c1
    27.2%, -12.1%
O=C(Cc1ccc(Cl)c(Cl)c1)N1CCCC[C@H]1CN1CCCC1
    ?, -24.6%
Cc1cc(O)c(C=O)c2c1C(=O)Oc1c(C)c(O)c3c(c1O2)C(O)OC3=O (stereo not given)
    -1.4%, 6.2%
C[C@@H](Cc1ccccc1)Nc1ncnc2c1ncn2[C@@H]1O[C@H](CO)[C@@H](O)[C@H]1O
    48.0%[activator], 3.4%
CC(=O)O[C@@H]1CC2CCC1(C)C2(C)C (stereo not given in full)
    19.2%, -5.2%
CCCCCCOc1ccccc1C(N)=O
    13.2%, 4.5%
CCCCC/C=C\CC1OC1CCCCCCCC(=O)O (stereo not given)
    7.6%&2.7%, 0.7%&-4.3%

Assay outcomes from PubChem.
